RanGTP-Impb inh = disruptors of Ran-importin-beta complex formation – biochemical, FRET, CFP-Ran, YFP-importin-beta, homogeneous, primary screen; 300,000 compounds, 1.1% hits; inhibition, % (concentration not given with the values); cell-free CFP-Ran/YFP-importin-beta FRET ratio; AID 2216;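 active means most replicates above 15%; inconclusive means exactly half above 15%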;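 further: 0% = DMSO wells and 100% = Ran loaded with GDP instead of GTP; wells of about 40 µL received 100 nL stock; the first replicate is given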
T cruzi inh = blocks replication of Trypanosoma cruzi; T. cruzi beta-gal in NIH3T3, luminescence, 90 h; inhibition, % (concentration not given with the values); 300,000 compounds, 1.4% hits; AID 1885;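 active means mean inhibition across valid replicates above about 55%, limit read from the data; inconclusive means mean below that limit but half or more replicates reach it; inactive means mean below it, under half of replicates reach it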;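 further: signal also drops with host cell toxicity which is not excluded here; 0% = plate median of DMSO wells and 100% = zero luminescence signal; higher percent means less beta-gal luminescence so fewer parasites; stock transfer was 50 nL into about 50 µL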
Vif A3G = HIV-1 Vif–A3G interaction blockers – biochemical, TR-FRET, GST-Vif 1-94, biotin-A3G peptide, dose response retest, primary screen (AID 1117319) | TR-FRET GST-Vif / biotin-A3G peptide binding; higher % means a stronger effect; test concentration not given here; strong numbers were not always called active | 260,000 compounds, 0.57% hits | inhibition, %, or IC50 in µM where a hit was titrated;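 active means above the screen mean plus three standard deviations and confirmed in dose response; inconclusive means results disagree or hit not tested in dose response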;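 further: Vif residues 1-94 fused to GST binding biotinylated APOBEC3G peptide 110-148; 0% = full assay without inhibitor and 100% = GST in place of GST-Vif; retest series ran down from 100 µM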
LANA-H2A inh = blocks KSHV LANA binding to histone H2A/H2B. Q9QR71. cell-free LANA-H2A/H2B peptide, fluorescence polarization. inhibition, % (concentration not given with the values). 320,000 compounds, 0.6% hits. AID 2629; in the data active means inhibition mostly above about 10%, no sharp cut-off; inactive means mostly below about 6.7%;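 further: stock transfer was 7.5 nL into about 10 µL; 0% = median of vehicle wells and 100% = median of positive control wells; one replicate is shown; the record names a cut of 25% in any replicate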
Calb FLC = affects C. albicans growth with fluconazole. growth inhibition, % (no concentration beside the values). C. albicans CaCi-2 (fluconazole-resistant clinical isolate) + fluconazole, Alamar Blue growth, 48 h. 300,000 compounds, 0.57% hits;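 active means most replicates above 75%; inconclusive means exactly half above 75%; inactive means most below 75%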;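 further: all wells also contain fluconazole at 8 µg/ml as a sub-toxic cotreatment; 0% = median of DMSO wells and 100% = median of geldanamycin control wells; wells of about 8 µL received 7.5 nL stock; the first replicate is given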
Beta apoptosis = beta cell apoptosis inhibition; INS-1E cytokine-induced death, ATP luminescence, 48 h; percent of positive-control rescue, neutral wells zero; protection from apoptosis, % (concentration not given with the values); AID 435005; 300,000 compounds, 0.8% hits;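 active means all replicates at 75% or more, or half of them and the mean; inconclusive means half reach 75% but not the mean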;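 further: 0% = cytokine-treated negative control wells and 100% = positive control rescue; higher means more ATP so stronger rescue from cytokine killing; wells of about 40 µL received 100 nL stock; the first replicate is given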
Bfl-1 A1 inh = inhibitors of the anti-apoptotic protein A1, read as caspase activation; 330,000 compounds, 0.066% hits; MEF A1-2A-BIM cells, Caspase-Glo 3/7 luminescence, 3 h; percent of clofoctol response, vehicle zero; caspase activation, % (test concentration not listed); AID 2462;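 active means over half of replicate activation scores above 10%, or exactly half above 10 with the replicate mean above 10; inconclusive means replicate mean below 10 yet half the replicates above 10; inactive means over half of replicates below 10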;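 further: wells of about 30 µL received 50 nL stock; many hits fall short of the cut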
AF4-AF9 inh = inhibitors of human MLL-AF4/AF9 interaction; inhibition, % at 10 µM; 350,000 compounds, 0.47% hits; AlphaScreen, biotin-AF4 peptide binding to FLAG-AF9; P42568;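 active means every replicate reaching a set inhibition limit, whatever the replicate mean, cut at about 25% in these data; inconclusive means mean inhibition reaches that limit but some replicates miss it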;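 further: 0% = plate neutral control median and 100% = total signal loss; the record names both 10 and 1 µM as test concentration; the first replicate is given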
Target sequence (P42568 whole entry, looked up): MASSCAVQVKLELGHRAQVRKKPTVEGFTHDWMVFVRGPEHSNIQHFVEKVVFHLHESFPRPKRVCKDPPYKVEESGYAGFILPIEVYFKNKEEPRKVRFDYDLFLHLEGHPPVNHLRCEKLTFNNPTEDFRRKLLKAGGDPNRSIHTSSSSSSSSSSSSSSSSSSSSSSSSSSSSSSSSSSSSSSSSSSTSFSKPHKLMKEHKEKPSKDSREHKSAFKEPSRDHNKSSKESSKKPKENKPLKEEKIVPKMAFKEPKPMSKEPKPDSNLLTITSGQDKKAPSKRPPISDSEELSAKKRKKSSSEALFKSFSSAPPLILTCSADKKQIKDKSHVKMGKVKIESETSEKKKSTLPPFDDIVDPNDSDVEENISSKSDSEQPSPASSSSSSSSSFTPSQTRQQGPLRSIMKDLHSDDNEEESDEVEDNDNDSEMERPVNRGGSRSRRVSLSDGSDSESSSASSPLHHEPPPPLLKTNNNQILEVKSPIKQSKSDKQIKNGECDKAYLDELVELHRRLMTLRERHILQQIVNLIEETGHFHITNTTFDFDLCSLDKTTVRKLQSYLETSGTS
* hit, by the source's call; ? = inconclusive; . = not tested or not shown; & = joins results of further samples.

#	Molecule	LANA-H2A inh	T cruzi inh	Beta apoptosis	Vif A3G
1	O=C(NC(=S)Nc1nc2c(s1)CCCC2)c1ccc(C(=O)c2ccccc2)cc1	4.6	23	10	21%
2	CSc1ccc(/C=N\Nc2nncn2N)cc1	0.4	-12	-6	3%
3	O=C(NCc1ccco1)c1nc(-c2ccccc2)n(-c2ccccc2)n1	3.1	20	-1	-1%
4	COc1ccc(CC(=O)Nc2cccc(C(=O)O)c2C)cc1	2.4	-13	4	-7%
5	COc1ccc(CCNC(=O)c2cccnc2SC)cc1	1.4	.	4	?
6	c1ccc(-c2nc3ccccc3nc2-c2ccccn2)nc1	-0.8	3	-2	4%
7	Nc1ccccc1S(=O)(=O)c1ccccc1N	1.4	-6	-12	0%
8	Cc1cc(C(=O)OCC(=O)c2c(N)n(C)c(=O)n(C)c2=O)c(C)n1-c1ccccc1	-0.3	20	0	9%
9	COc1cccc(OC)c1C(=O)OCC(=O)NC(=O)NCc1ccccc1	-3.4	0	5	-7%
10	Nc1c(C(=O)NCc2ccco2)nnn1CC(=O)Nc1ccc2c(c1)OCO2	-0.8	-8	-5	-2%
11	O=C(NC1CCCC1)C(c1ccccn1)N(C(=O)c1csnn1)C1CCCC1 (stereo not given)	1.9	-7	-1	-3%
12	COc1ccccc1NC(=O)CSc1nc2ccccc2c(=O)n1CC1CCCO1 (stereo not given)	-2.1	10	-1	.
13	O=C(NC1CCCC1)c1cc(S(=O)(=O)N2CCOCC2)c(Cl)cc1Cl	2.6	-3	1	-3%
14	CCN1CCCC1CNC(=O)c1ccc2c(=O)n(CCOC)c(=O)[nH]c2c1 (stereo not given)	3.9	-3	-8	-1%
15	COc1cc(CN2CCN(C(=O)CC(C)C)CC2)c([N+](=O)[O-])cc1OC	-1.4	-6	-13	-5%

#	AF4-AF9 inh	Calb FLC	RanGTP-Impb inh	Bfl-1 A1 inh
1	.	0	1.2	-0.9
2	1.2	-1	-1.4	0.5
3	.	-30	1.4	1.0
4	1.2	-1	2.5	0.2
5	-0.4	-2	.	0.2
6	.	-3	-3.6	-0.4
7	1.5	-3	?	0.1
8	.	14	3.8	0.7
9	-1.6	-6	1.3	-0.2
10	7.6	1	-2.7	0.6
11	.	-4	3.3	1.2
12	3.7	-6	-1.0	-0.2
13	-0.2	-1	2.3	-0.1
14	.	-3	0.5	-0.1
15	2.5	-4	0.4	-1.3

Remaining list, next part.
#	Molecule	LANA-H2A inh	T cruzi inh	Beta apoptosis	Vif A3G
16	Cc1ccc(S(=O)(=O)N(C)c2c(C)ccc(S(=O)(=O)NC(C)(C)C)c2C)cc1	-4.6	31	0	-4%
17	O=C(COC(=O)[C@@H]1CC(O)CN1S(=O)(=O)c1ccc2c(c1)OCCO2)NCc1ccc(F)cc1 (stereo not given in full)	0.2	7	2	1%
18	O=C(NCCN1CCN(c2ccccc2)CC1)C1CCCN(S(=O)(=O)c2cnc[nH]2)C1 (stereo not given)	-2.1	-1	-1	-2%
19	FC(F)(F)c1cc(-c2cccs2)nc(NCc2ccco2)n1	1.9	18	19	-3%
20	O=C1c2ccccc2C(=O)N1Cc1nc2ccccc2c(=O)n1Cc1ccco1	-5.5	-30	-3	.
21	Cc1ccc(/C(CSc2nccn2-c2ncc(C(F)(F)F)cc2Cl)=N\O)cc1	2.3	2	3	5%
22	O=C(O)C1CCCCC1C(=O)NCc1ccccc1 (stereo not given)	2.2	-15	.	-6%
23	N#CCCN1CCN(S(=O)(=O)c2ccc(S(=O)(=O)NCc3ccccc3)cc2)CC1	1.4	2	-3	19%
24	CCC(OC(=O)c1nsc(Cl)c1Cl)C(=O)NCCc1ccccc1 (stereo not given)	1.6	-14	3	.
25	Cc1ccc(NS(=O)(=O)c2ccc(C(=O)N3CCC3)cc2)cc1	1.2	0	-1	2%
26	O=C(NCC(=O)N1CCOCC1)c1ccc(Cl)cc1	-1.1	-9	-4	-9%
27	C[C@H](CO)N1C[C@H](C)[C@@H](CN(C)S(=O)(=O)c2ccc(F)cc2)Oc2c(NC(=O)Nc3ccccc3)cccc2C1=O	15*	.	-8	.
28	COc1ccc(N2CCN(C(=O)CSc3nc4ccccc4c(=O)[nH]3)CC2)cc1	0.6	12	2	.
29	CCN(CCCNC(=O)CN1C(=O)COc2ccccc21)c1ccccc1	4.5	.	-7	19%
30	Cc1cccc(NC(=O)NC2CCCCCCC2)c1C	5.8	.	3	.

#	AF4-AF9 inh	Calb FLC	RanGTP-Impb inh	Bfl-1 A1 inh
16	-1.3	?	-3.9	0.0
17	0.1	?	5.0	-0.1
18	.	8	-4.1	-0.3
19	.	14	?	0.6
20	.	40	1.2	-0.7
21	.	48	?	-0.5
22	.	-1	-1.7	0.8
23	-1.5	-8	-7.1	-0.1
24	-1.7	-6	-3.2	0.2
25	-0.9	-1	-1.0	0.4
26	0.9	-3	1.7	0.3
27	4.4&-2.3	.	.	-0.1
28	-0.4	30	-3.2	0.9
29	.	.	.	1.2
30	0.2	-17	.	-2.4

Shown in markdown: part of the list above
| entry | SMILES | LANA-H2A inh | T cruzi inh | Beta apoptosis | Vif A3G | AF4-AF9 inh | Calb FLC | RanGTP-Impb inh | Bfl-1 A1 inh |
| --- | --- | --- | --- | --- | --- | --- | --- | --- | --- |
| 16 | Cc1ccc(S(=O)(=O)N(C)c2c(C)ccc(S(=O)(=O)NC(C)(C)C)c2C)cc1 | -4.6 | 31 | 0 | -4% | -1.3 | ? | -3.9 | 0.0 |
| 17 | O=C(COC(=O)[C@@H]1CC(O)CN1S(=O)(=O)c1ccc2c(c1)OCCO2)NCc1ccc(F)cc1 (stereo not given in full) | 0.2 | 7 | 2 | 1% | 0.1 | ? | 5.0 | -0.1 |
| 18 | O=C(NCCN1CCN(c2ccccc2)CC1)C1CCCN(S(=O)(=O)c2cnc[nH]2)C1 (stereo not given) | -2.1 | -1 | -1 | -2% | . | 8 | -4.1 | -0.3 |
| 19 | FC(F)(F)c1cc(-c2cccs2)nc(NCc2ccco2)n1 | 1.9 | 18 | 19 | -3% | . | 14 | ? | 0.6 |
| 20 | O=C1c2ccccc2C(=O)N1Cc1nc2ccccc2c(=O)n1Cc1ccco1 | -5.5 | -30 | -3 | . | . | 40 | 1.2 | -0.7 |
| 21 | Cc1ccc(/C(CSc2nccn2-c2ncc(C(F)(F)F)cc2Cl)=N\O)cc1 | 2.3 | 2 | 3 | 5% | . | 48 | ? | -0.5 |
| 22 | O=C(O)C1CCCCC1C(=O)NCc1ccccc1 (stereo not given) | 2.2 | -15 | . | -6% | . | -1 | -1.7 | 0.8 |
| 23 | N#CCCN1CCN(S(=O)(=O)c2ccc(S(=O)(=O)NCc3ccccc3)cc2)CC1 | 1.4 | 2 | -3 | 19% | -1.5 | -8 | -7.1 | -0.1 |
| 24 | CCC(OC(=O)c1nsc(Cl)c1Cl)C(=O)NCCc1ccccc1 (stereo not given) | 1.6 | -14 | 3 | . | -1.7 | -6 | -3.2 | 0.2 |
| 25 | Cc1ccc(NS(=O)(=O)c2ccc(C(=O)N3CCC3)cc2)cc1 | 1.2 | 0 | -1 | 2% | -0.9 | -1 | -1.0 | 0.4 |
| 26 | O=C(NCC(=O)N1CCOCC1)c1ccc(Cl)cc1 | -1.1 | -9 | -4 | -9% | 0.9 | -3 | 1.7 | 0.3 |
| 27 | C[C@H](CO)N1C[C@H](C)[C@@H](CN(C)S(=O)(=O)c2ccc(F)cc2)Oc2c(NC(=O)Nc3ccccc3)cccc2C1=O | 15* | . | -8 | . | 4.4&-2.3 | . | . | -0.1 |

(list continues)
#	Molecule	LANA-H2A inh	T cruzi inh	Beta apoptosis	Vif A3G
31	COc1ccc(CC(=O)N(C)CC(=O)Nc2ccc(F)cc2)cc1S(=O)(=O)N1CCOCC1	4.9	.	0	-8%
32	C=CCn1c(N2CCN(c3ccc(OC)cc3)CC2)nc2c1c(=O)n(C)c(=O)n2C	-4.9	-5	-5	12%
33	O=C(CSc1ccc(-c2cccnc2)nn1)Nc1ccccc1F	-1.5	-14	-2	1%
34	S=c1nc(C2COc3ccccc3O2)[nH][nH]1 (stereo not given)	-2.6	4	2	?
35	CCNc1nc2c(c(=O)[nH]c(=O)n2C)n1CC(C)C	0.6	4	-1	4%
36	COc1ccc(Cl)cc1NC(=O)C1CC(=O)N(C2CCCCC2)C1 (stereo not given)	2.9	-3	0	.
37	Cc1cc(Cl)c2ccc3ccccc3c2n1	0.7	10	-1	18%
38	CC1(C)N=C(N)NC(Nc2ccccc2)=N1	1.5	-5	-9	-7%
39	Cc1ccc(-c2nc(CSCC(=O)Nc3cc(C)on3)c(C)o2)cc1	-3.9	-10	-3	10%
40	O=C(CNC(=O)c1ccc(Br)cc1)c1ccccc1	-1.4	2	-7	-1%
41	COc1ccc(CCNC(=O)c2ccccc2C(=O)NCCc2ccc(OC)cc2)cc1	-0.8	-11	5	.
42	O=C(NCc1ccccc1)N1CCN(c2ccc(F)cc2)CC1	0.6	-23	-6	-1%
43	O=C(c1cc2ncc(Br)cn2n1)N1CCOCC1	-0.8	-10	2	5%
44	O=S(=O)(c1ccccc1)c1nc(NCc2ccccc2)sc1Cl	2.6	20	4	18%
45	Cc1ccc(S(=O)(=O)CCc2nnc(NC(=O)CCl)s2)cc1C	1.0	43	-12	.

#	AF4-AF9 inh	Calb FLC	RanGTP-Impb inh	Bfl-1 A1 inh
31	-4.2	.	.	0.1
32	3.0	26	1.4	0.0
33	-0.3	-2	6.9	0.0
34	-8.0	-19	-6.1	-0.7
35	-3.5	9	5.8	0.9
36	-0.2	-3	-0.4	-0.1
37	-1.1	27	-2.2	-0.2
38	.	-20	0.9	0.3
39	2.0	3	2.9	-0.4
40	-0.3	-3	-2.9	-7.4
41	-1.3	-20	-4.3	-0.1
42	.	6	-1.5	-0.3
43	4.1	2	0.4	2.9
44	8.4	-8	1.0	0.2
45	-0.1	-9	?	1.4

(next part)
#	Molecule	LANA-H2A inh	T cruzi inh	Beta apoptosis	Vif A3G
46	CCSc1nc(=S)cc(C)[nH]1	0.8	18	-5	7%
47	O=c1[nH]c2ccccc2n1C1=CCCC1	-0.9	-6	1	5%
48	O=C(COc1coc(CN2CCc3ccccc3C2)cc1=O)Nc1ccc(F)cc1	-0.3	-1	.	1%
49	COC(=O)CNC(=O)CNC(=O)c1nn(-c2ccc(OC)c(OC)c2)c(=O)c2ccccc12	-0.8	-4	-14	-1%
50	C[C@H]1CN([C@@H](C)CO)C(=O)c2cccc(NC(=O)Nc3ccc(C(F)(F)F)cc3)c2O[C@@H]1CN(C)C(=O)Nc1ccc(F)cc1	4.0	.	4	.
51	O=C(NC1CCCC1)c1cc2cc(Br)ccc2o1	1.9	-2	-2	.
52	O=S(=O)(NCc1ccccc1)NCc1ccc(Cl)cc1Cl	11	13	1	5%

#	AF4-AF9 inh	Calb FLC	RanGTP-Impb inh	Bfl-1 A1 inh
46	5.5	5	4.1	-1.1
47	.	-8	?	-1.1
48	-0.1	-5	0.1	-0.5
49	-3.8	-5	7.8	-0.1
50	3.1&3.2	.	.	0.9
51	-0.7	2	-3.2	-0.4
52	1.6	3	-0.6	-0.1

Screening results as filed in PubChem BioAssay.

Hits appear at their usual frequency (roughly 4.3% active in at least one column).
